Screening results: PubChem, National Center for Advancing Translational Sciences (NCATS)
VDR inh: Inhibitors of the vitamin D receptor (VDR): qHTS; VDR-SRC2-3 peptide fluorescence polarization, 2 h; 0.93% of 400,000 active; Vitamin D3 receptor (Homo sapiens), P11473; Potency, µM, without a hit: max response, negative = inhibition, usual class: inhibitors; AID 504847, 2011; active = well fitted inhibition curve with a large enough effect; inconclusive = small, poorly fitted or top-dose-only effect, or another doubt; inactive = no such curve, though single readings can be large or run the other way; note: series mostly up to about 120 µM
Target sequence (P11473 whole entry, looked up): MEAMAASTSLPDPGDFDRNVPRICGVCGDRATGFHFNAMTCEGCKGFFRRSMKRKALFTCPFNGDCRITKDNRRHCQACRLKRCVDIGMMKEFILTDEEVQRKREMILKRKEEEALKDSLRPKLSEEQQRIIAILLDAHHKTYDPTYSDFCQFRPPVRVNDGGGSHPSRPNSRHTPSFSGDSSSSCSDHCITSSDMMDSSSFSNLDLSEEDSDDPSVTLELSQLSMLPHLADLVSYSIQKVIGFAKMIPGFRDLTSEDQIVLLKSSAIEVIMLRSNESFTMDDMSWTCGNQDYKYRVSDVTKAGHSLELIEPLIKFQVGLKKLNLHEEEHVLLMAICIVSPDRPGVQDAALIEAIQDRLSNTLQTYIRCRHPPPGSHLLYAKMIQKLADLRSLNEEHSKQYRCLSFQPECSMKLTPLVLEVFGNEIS
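The screen uses fluorescence polarization to detect compounds that interfere with recruitment of the SRC2-3 coactivator peptide to VDR; plates are read after 2 h at room temperature.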
* = called active by the depositor; & = joins results of further samples. % is set by controls: 0 for no effect and ±100 for the full control effect; potency is the fitted concentration of half-maximal effect. The list is partial; rates above refer to the full screens.

How did COc1ccc2cc(/C=N/NC(=O)c3ccc(CN(c4ccc(C)c(C)c4)S(C)(=O)=O)cc3)c(Cl)nc2c1 do in these assays?
VDR inh: -7%

How did COc1ccc(C2CC(=O)N(Cc3cccc(F)c3)c3ccccc3S2)cc1 (stereo not drawn) do in these assays?
VDR inh: -11%

Results for COCCNC(=O)C1=CC(c2ccc3c(c2)OCO3)=NS(=O)(=O)N1C ?
VDR inh: -2%

What do the screens show for `Cc1nc(SCC(=O)Nc2ccc(OCc3ccccc3)cc2)n[nH]1`?
VDR inh: 2%

How did CCC(=O)Nc1ccc(C(=O)NNC(=O)c2ccc(C)cc2)cc1 do in these assays?
VDR inh: -8%

Results for Cc1ccc(N2CCN(CC(O)COC3CCCCC3)CC2)cc1 (stereo not drawn) ?
VDR inh: -1%

How did CCN(CC)CCNC(=O)c1ccc(NC(=O)/C=C/c2ccc3ccccc3n2)cc1 do in these assays?
VDR inh: -11%

Results for COc1ccc2c(Sc3ccc(C)cc3)c(C(=O)NCC(C)c3ccccc3)[nH]c2c1 (stereo not drawn) ?
VDR inh: 17%

How did O=C(c1ccc2c3n(nc2c1)-c1ccccc1CO3)N1CCCCC1 do in these assays?
VDR inh: -16%

Results for Cc1ccc(C(=O)/C=C/Nc2cccc(O)c2)cc1 ?
VDR inh: -12%

How did Cc1nnc(NC(=O)CSc2nnc(Cc3cccn3C)n2C)s1 do in these assays?
VDR inh: 0%

Results for CC(Sc1nc(N)cc(=O)[nH]1)C(=O)NCC(=O)Nc1ccc(F)c(F)c1F (stereo not drawn) ?
VDR inh: -5%

What do the screens show for `O=S(=O)(c1ccc(NC2CCCCC2)cc1)N1CCOCC1`?
VDR inh: -14%

Results for Cn1nc(C(=O)NCCc2ccc3c(c2)OCCO3)c2ccccc2c1=O ?
VDR inh: 2%

What do the screens show for `Cc1ccc(C(=O)NCC(=O)NC23CC4CC(CC(C4)C2)C3)cc1`?
VDR inh: 22%

What do the screens show for `CCOC(=O)c1ccc(NC(=O)c2nc[nH]c2C(=O)N2CCC(C)CC2)cc1`?
VDR inh: 15%

Results for CC1(C)C2CCC1(C)C(NC(=O)/C=C/c1ccccc1)C2 (stereo not drawn) ?
VDR inh: -15%

Results for COc1ccccc1NC(=O)COC(=O)c1cc2c(s1)CCC2 ?
VDR inh: 5%

How did O=C(CC(=O)NC1CCCCC1)N/N=C/c1ccccc1Cl do in these assays?
VDR inh: 2%

What do the screens show for `CC(=O)Nc1cccc(NC(=O)C2CCCN2C(=O)Nc2ccc(C)cc2)c1` (stereo not drawn)?
VDR inh: -9%

How did CC1C(=O)N(Cc2cccc(F)c2)c2ccccc2N1C(=O)c1ccccc1 (stereo not drawn) do in these assays?
VDR inh: -13%

What do the screens show for `COc1cccc(CC(=O)Nc2nc(-c3ccc(F)c(F)c3)cs2)c1`?
VDR inh: 4%

What do the screens show for `CCOC1=NC(=C(c2ccccc2)c2ccccc2)OC1=O`?
VDR inh: -8%

How did Cc1nnc(N2CCC(C(=O)NC3CCCCC3)CC2)c2nn(-c3ccccc3)c(C)c12 do in these assays?
VDR inh: 14%

Results for CN(C(=O)COC(=O)c1ccc(-c2ccc(O)cc2)cc1)C1CCS(=O)(=O)C1 (stereo not drawn) ?
VDR inh: 2%

How did Cc1cc(=O)[nH]c(SCC(=O)NN(c2ccccc2)c2ccccc2)n1 do in these assays?
VDR inh: 0%

How did CC(=O)c1c(O)c2ccccc2n(C2CCCCC2)c1=O do in these assays?
VDR inh: 13%

Results for COc1ccc2c(Sc3ccccc3)c(C(=O)N3CCC(C)CC3)[nH]c2c1 ?
VDR inh: 2%

What do the screens show for `CC(C)N1C(=O)S/C(=C/c2cccnc2)C1=O`?
VDR inh: 1%

How did O=C(Nc1ccc(C(=O)N2CCOCC2)cc1)c1ccc([N+](=O)[O-])cc1 do in these assays?
VDR inh: 1%

Results for CN1CCC(N(C)S(=O)(=O)c2ccc(F)cc2F)CC1 ?
VDR inh: 16%

What do the screens show for `COc1ccccc1NC(=O)/C=C/c1ccc(OC)c(S(=O)(=O)N2CCOCC2)c1`?
VDR inh: 0%

How did COc1cccc(NC(=O)CN(C)C(=O)c2c(C)nn(CC(C)C)c2Cl)c1 do in these assays?
VDR inh: -7%

How did Cc1cc(=O)oc2cc(OCC(=O)NCCCn3ccnc3)ccc12 do in these assays?
VDR inh: -4%

How did COc1ccccc1C(=O)NCC1(c2ccccc2)CCCC1 do in these assays?
VDR inh: 0%

Results for COc1ccc(-c2nc3cnc(N(C)C)nc3n(C)c2=O)cc1 ?
VDR inh: 3%

What do the screens show for `O=C(Nc1cnn(Cc2ccc(Cl)c(Cl)c2)c1)C12CC3CC(CC(C3)C1)C2`?
VDR inh: -2%

What do the screens show for `CCCCCCCC(=O)OCC(COC(=O)CCCCCCC)OC(=O)CCCCCCC`?
VDR inh: -7%&9%

What do the screens show for `C/C(=N\NC(=O)c1ccccc1)c1cc2cc([N+](=O)[O-])ccc2oc1=O`?
VDR inh: -3%

How did Cn1[nH]c(=O)c(Cl)c(Cl)c1=O do in these assays?
VDR inh: 6%

Results for Cc1n[nH]c(C)c1S(=O)(=O)N1CCCC(C(=O)Nc2nccs2)C1 (stereo not drawn) ?
VDR inh: 5%

Results for Cc1oc(-c2ccc(Cl)cc2)nc1CN1CCCC(C(=O)NC2CC2)C1 (stereo not drawn) ?
VDR inh: inconclusive

What do the screens show for `OCCN(Cc1cccnc1)Cc1ccccn1`?
VDR inh: 17%

Results for COc1cccc(NC(=O)CN(C)C(=O)c2cc(S(=O)(=O)N3CCCCCC3)ccc2OC)c1 ?
VDR inh: 3%

How did C=CC[C@@H](CC(=O)NCCO)C(=O)N[C@@H](COC(=O)[C@@H](CC=C)CC(=O)OC(C)(C)C)Cc1c[nH]c2ccccc12 do in these assays?
VDR inh: 4%

What do the screens show for `O=C(Nc1ccc(-c2ccc([N+](=O)[O-])cc2)cc1)c1ccccc1F`?
VDR inh: -16%

What do the screens show for `Oc1ccccc1-c1nnc(COc2ccccc2)o1`?
VDR inh: 8%

Results for CCOc1cc(/C=N/NC(=O)COc2cccc(C)c2)ccc1OC(=O)c1cccs1 ?
VDR inh: -15%

How did COc1ccc(NC(=O)c2ccc3snnc3c2)cc1OC do in these assays?
VDR inh: -6%

How did C=CCC[C@@H](Cc1ccc(F)cc1)C(=O)OC[C@@H](Cc1c[nH]c2ccccc12)NC(=O)[C@@H](CC=C)CC(=O)N(CCO)Cc1ccccc1 do in these assays?
VDR inh: -3%

What do the screens show for `CCC(c1nnnn1Cc1ccc2c(c1)OCO2)N1CCN(c2ccc(F)cc2)CC1` (stereo not drawn)?
VDR inh: 6%

How did O=C(NCCCn1cccn1)C1CCC(=O)N(Cc2cccc(C(F)(F)F)c2)C1 (stereo not drawn) do in these assays?
VDR inh: 0%

How did Cc1ccc2oc(=O)c3cnn(CC(=O)N4CCN(c5ccccc5F)CC4)c3c2c1 do in these assays?
VDR inh: -27%

How did CCOc1ccccc1/C=C(\C#N)C1=CCCC1 do in these assays?
VDR inh: -23%

What do the screens show for `Cn1cccc1CNCc1ccccc1Cl`?
VDR inh: -2%

What do the screens show for `O=C(Nc1ccc(Cl)cc1)c1ccc2c(c1)N(Cc1ccccc1)CCS2`?
VDR inh: -9%

How did COc1cc(Cl)c(C)cc1NC(=O)CN1C(=O)C2CC=CCC2C1=O (stereo not drawn) do in these assays?
VDR inh: 7%

What do the screens show for `O=C(CNC(=O)c1ccncc1)N/N=C/c1cccc([N+](=O)[O-])c1`?
VDR inh: 26%

How did COc1ccc(NCC(=O)N/N=C/C=C\c2ccccc2)cc1 do in these assays?
VDR inh: -29%

How did COCCNc1nc(N)c([N+](=O)[O-])c(Nc2ccc(F)cc2)n1 do in these assays?
VDR inh: -13%

Results for O=C(NNC(=O)c1ccccc1Br)c1ccccc1Cl ?
VDR inh: -6%

How did CCCCS(=O)(=O)N1C2=NC(C(=O)OC)=C(C(=O)OC)[C@@H]3N(C)c4ccc(OC)cc4[C@]23C[C@H]1C(=O)OC do in these assays?
VDR inh: 7%

What do the screens show for `Cc1ccc(CNC(=O)c2ccc3c(c2)S(=O)(=O)c2ccccc2C3=O)o1`?
VDR inh: inconclusive

What do the screens show for `Cc1ccc(NC(=S)NCCO)c(C)c1`?
VDR inh: 12%

Results for O=S(=O)(O)c1ccc(SCc2ccccc2)nc1 ?
VDR inh: inconclusive

How did COc1ccc(-c2n[nH]c3c2cnc2cc(OC)c(OC)cc23)cc1 do in these assays?
VDR inh: 12%

Results for Cc1[nH]n(C(C)(C)C)c(=O)c1Sc1ccccc1 ?
VDR inh: -2%

How did Cc1ccc(C)c(Nc2cc(C)nc3ncnn23)c1 do in these assays?
VDR inh: -3%

How did Cc1cc(NC(=O)CSc2nccn2-c2ccc(Cl)cc2)no1 do in these assays?
VDR inh: 7%

Results for O=C(CCCN1C(=O)/C(=C/c2ccccc2Cl)SC1=S)NCCCN1CCOCC1 ?
VDR inh: -4%

Results for CC(=O)c1cccc(OCC(=O)N(C)CC(=O)Nc2ccc(F)cc2)c1 ?
VDR inh: -26%

Results for C/[N+]([O-])=C/c1c(OCc2ccc(Cl)cc2Cl)ccc2ccccc12 ?
VDR inh: -4%

Two neighbouring compounds out of the list so far, quoted:
How did CCN(CC)CCNC(=O)c1ccc(NC(=O)/C=C/c2ccc3ccccc3n2)cc1 do in these assays?
VDR inh: -11%

Results for COc1ccc2c(Sc3ccc(C)cc3)c(C(=O)NCC(C)c3ccccc3)[nH]c2c1 (stereo not drawn) ?
VDR inh: 17%

Reprinted from the entries so far, 17 compounds:
What do the screens show for `Cn1cccc1CNCc1ccccc1Cl`?
VDR inh: -2%

What do the screens show for `O=C(Nc1ccc(Cl)cc1)c1ccc2c(c1)N(Cc1ccccc1)CCS2`?
VDR inh: -9%

How did COc1cc(Cl)c(C)cc1NC(=O)CN1C(=O)C2CC=CCC2C1=O (stereo not drawn) do in these assays?
VDR inh: 7%

What do the screens show for `O=C(CNC(=O)c1ccncc1)N/N=C/c1cccc([N+](=O)[O-])c1`?
VDR inh: 26%

How did COc1ccc(NCC(=O)N/N=C/C=C\c2ccccc2)cc1 do in these assays?
VDR inh: -29%

How did COCCNc1nc(N)c([N+](=O)[O-])c(Nc2ccc(F)cc2)n1 do in these assays?
VDR inh: -13%

Results for O=C(NNC(=O)c1ccccc1Br)c1ccccc1Cl ?
VDR inh: -6%

How did CCCCS(=O)(=O)N1C2=NC(C(=O)OC)=C(C(=O)OC)[C@@H]3N(C)c4ccc(OC)cc4[C@]23C[C@H]1C(=O)OC do in these assays?
VDR inh: 7%

What do the screens show for `Cc1ccc(CNC(=O)c2ccc3c(c2)S(=O)(=O)c2ccccc2C3=O)o1`?
VDR inh: inconclusive

What do the screens show for `Cc1ccc(NC(=S)NCCO)c(C)c1`?
VDR inh: 12%

Results for O=S(=O)(O)c1ccc(SCc2ccccc2)nc1 ?
VDR inh: inconclusive

How did COc1ccc(-c2n[nH]c3c2cnc2cc(OC)c(OC)cc23)cc1 do in these assays?
VDR inh: 12%

Results for Cc1[nH]n(C(C)(C)C)c(=O)c1Sc1ccccc1 ?
VDR inh: -2%

How did Cc1ccc(C)c(Nc2cc(C)nc3ncnn23)c1 do in these assays?
VDR inh: -3%

How did Cc1cc(NC(=O)CSc2nccn2-c2ccc(Cl)cc2)no1 do in these assays?
VDR inh: 7%

Results for O=C(CCCN1C(=O)/C(=C/c2ccccc2Cl)SC1=S)NCCCN1CCOCC1 ?
VDR inh: -4%

Results for CC(=O)c1cccc(OCC(=O)N(C)CC(=O)Nc2ccc(F)cc2)c1 ?
VDR inh: -26%

(list continues)
Results for Cc1ccccc1C(O)c1cccnc1 (stereo not drawn) ?
VDR inh: -10%

What do the screens show for `CC1(C)Cc2c(cnn2-c2ccc(F)cc2)C(NC(=O)c2cnccn2)C1` (stereo not drawn)?
VDR inh: 11%

How did FC(F)(F)c1ccc(CN2C[C@@H]3C(c4ccc(C(F)(F)F)cc4)C4(c5cccnc5)CC3(C4)[C@H]2c2ccccc2)cc1 (stereo partly drawn) do in these assays?
VDR inh: 14%

Results for CN(C#N)c1nc(N2CCOCC2)nc(N2CCOCC2)n1 ?
VDR inh: -12%

Results for CCOC(=O)c1sc(NC(=O)CCSC)nc1C ?
VDR inh: -25%

How did CCOc1cccc(/C=C2/NC(=O)N(CC(=O)Nc3cccc(C)c3)C2=O)c1O do in these assays?
VDR inh: 22%

How did CC(C)C[C@@]12C(=O)N(c3cccc(Br)c3)C(=O)N1[C@H](c1ccc(F)cc1)[C@@H]1C(=O)N(C3CCCCC3)C(=O)[C@@H]12 do in these assays?
VDR inh: -4%

How did Cc1cccc(C)c1OCC(=O)Nn1c(COc2ccccc2)nc2ccccc2c1=O do in these assays?
VDR inh: 0%
